Source: PubChem
GIRK2 act – activators of human GIRK2 potassium channels; HEK293-GIRK2 thallium flux, Thallos fluorescence; 63,000 compounds, 0.05% hits; calls only for hits at 25 µM; P48051;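 active means among the strongest 0.2% of first-round signals and kept after retests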;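 further: first round at about 10 µM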
Target sequence (P48051 whole entry, looked up): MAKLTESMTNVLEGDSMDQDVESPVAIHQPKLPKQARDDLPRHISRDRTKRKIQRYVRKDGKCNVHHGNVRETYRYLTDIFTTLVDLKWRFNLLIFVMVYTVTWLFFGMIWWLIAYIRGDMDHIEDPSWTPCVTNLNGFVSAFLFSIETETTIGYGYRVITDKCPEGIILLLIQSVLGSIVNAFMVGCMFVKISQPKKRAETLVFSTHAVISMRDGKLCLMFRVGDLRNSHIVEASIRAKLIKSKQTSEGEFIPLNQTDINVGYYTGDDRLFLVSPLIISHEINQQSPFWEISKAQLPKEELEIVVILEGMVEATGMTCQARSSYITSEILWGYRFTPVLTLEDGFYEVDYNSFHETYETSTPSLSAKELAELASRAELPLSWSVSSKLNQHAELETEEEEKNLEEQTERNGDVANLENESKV
Calls only; i = inactive. Only part of the results is shown, so the mix of outcomes need not match the whole.

SMILES	GIRK2 act
Cc1cc(C(=O)NCCC(O)c2ccc3c(c2)OCO3)c(C)o1 (centres undefined)	i
Cc1nc(OCC(=O)Nc2nc3ccccc3[nH]2)cc(-n2cccn2)n1	i
CCCCN1CC(c2nc3ccccc3n2CCCC)CC1=O (centres undefined)	i
Cc1ccc(-c2noc(-c3cccn(CC(=O)Nc4c(C)cccc4C)c3=O)n2)cc1	i
COc1ccc(C(CNS(=O)(=O)c2ccc(F)cc2)N2CCN(C)CC2)cc1 (centres undefined)	i
CNS(=O)(=O)c1ccc(C)c(N(C)S(=O)(=O)c2ccc(C)cc2)c1C	i
CCOC(=O)N1CCN(C(=O)c2cc(-c3sc(C)nc3C)[nH]n2)CC1	i
Cc1ccc(-c2noc(C3CCN(S(=O)(=O)c4ccc(C)c(C)c4)CC3)n2)cc1	i
c1cnn2ncc(-c3ccnc(Nc4ccc5c(c4)OCCO5)n3)c2c1	i
COc1cc(NC(=O)Nc2nccn(-c3cccc(Cl)c3)c2=O)cc(OC)c1	i
CCSc1nnc(NC(=O)CN2CCN(Cc3nc(-c4cccs4)cs3)CC2)s1	i
Cc1c(S(=O)(=O)N2CCN(C(=O)c3ccco3)CC2)c(=O)n(C)c(=O)n1C	i
COc1ccccc1C(=O)N1CCC(Oc2ccc(C#N)cn2)CC1	i
O=C(Cc1csc(-n2cccc2)n1)Nc1ccc(-n2cnnn2)cc1	i
COc1ccc(NC(=O)CSc2nc3c(sc(=S)n3-c3ccccc3)c(=O)[nH]2)cc1Cl	i
COc1ncccc1C(=O)N1CCC(COCc2ccccc2)CC1	i
CCOc1ccc(NC(=O)CSc2nnc3ccc(C(=O)Nc4cccc(F)c4)cn23)cc1	i
COc1ccc(/C=C/C(=O)Nc2ccccc2-c2nnc(SC)o2)cc1OC	i
O=C(NCc1ccsc1)NCc1cccs1	i
O=C(NCCOc1ccccc1)NCCc1ccoc1	i
Cc1cc(C(=O)Nc2nc3c(s2)CN(S(C)(=O)=O)CC3)no1	i
O=C(c1cc(-c2ccco2)[nH]n1)N1CCn2c1nc1ccccc12	i
CCOc1ccccc1NC(=O)Cn1cnc2c(-c3ccc(C)cc3)csc2c1=O	i
CCn1cnc2c(-c3ccccc3)cn(CC(=O)Nc3ccc(OC)cc3)c2c1=O	i
C=CCn1c(=O)c2c(nc3n2CCCN3c2ccc(OC)cc2OC)n(C)c1=O	i

Following part
SMILES	GIRK2 act
COc1ccc2nc(N(CCn3cccn3)C(=O)c3ccc4c(c3)OCO4)sc2c1	i
CN(C)C(CNC(=O)c1cc(-c2ccc(F)cc2)nn1C)c1cccs1 (centres undefined)	i
COC(=O)c1ccc(NC(=O)CSc2nnc(-c3ccncc3)o2)cc1	i
O=C(c1ccccc1F)N1CC(Oc2nc3c(Cl)cccc3s2)C1	i
COc1cccc(CNC(=O)CSc2nc3cc(-c4ccccc4)sc3c(=O)n2C)c1	i
COc1ccc(N2CCN(C(=O)C(=O)c3cn(CC(=O)N4CCOCC4)c4ccccc34)CC2)cc1	i
O=c1[nH]c2nc(NCc3ccccc3C(F)(F)F)ncc2c(=O)n1CCc1cccs1	i
O=C(NCC1CCC(c2nc3ccccc3[nH]2)CC1)c1ccno1 (centres undefined)	i
CCc1[nH]nc(S(=O)(=O)N2CCC(Cc3ccccc3)CC2)c1C(=O)OC	i
CCOc1ccc(-c2nc(Cn3c(=O)n(CC4CCCO4)c(=O)c4ccccc43)c(C)o2)cc1 (centres undefined)	i
COc1ccc(Cc2nnc3sc(-c4ccccc4)nn23)cc1	i
Cc1ccc(S(=O)(=O)CC(=O)NNc2nc3c(C)ccc(C)c3s2)cc1	i
Cc1nc(C)c(-c2cc(C(=O)N3CCSCC3)n[nH]2)s1	i
COc1ccc(C2CCN(S(=O)(=O)/C=C/c3ccc(C)cc3)C2)cc1 (centres undefined)	i
CN(CC(=O)NCc1nc(-c2ccccc2)no1)C(=O)c1c[nH]c2ccccc12	i
Cc1cc(CNC(=O)C(=O)Nc2ccc(Cl)c(N3CCCS3(=O)=O)c2)c(C)o1	i
CCOc1ccc(N2C(=O)C3N=NN(Cc4nc(-c5ccc(OC)c(OC)c5)no4)C3C2=O)cc1 (centres undefined)	i
O=C(Cn1c(=O)oc2ccccc21)NCCOc1ccc(-c2ccccc2)nn1	i
O=C(NCCn1ncccc1=O)c1cc2ccccc2o1	i
CCn1c(=O)c(C(=O)Nc2c(C)cccc2C)cc2cccnc21	i
O=C(COc1ccccc1F)NCc1cc(-c2ccncc2)n(C2CCCC2)n1	i
Cc1ccc(CNC(=O)c2cn(-c3cc(N4CCSCC4)ncn3)cn2)cc1	i
O=C(NCCc1ccoc1)Nc1cccc(C(F)(F)F)c1	i
CCCCOc1ccc(C(=O)NCCOc2ccccc2)cc1	i
CCCCN=C1SC(CC(=O)O)C(=O)N1CCCC (centres undefined)	i

Rewritten with the structure last: part of the list above.
GIRK2 act,Compound
i,O=C(COc1ccccc1F)NCc1cc(-c2ccncc2)n(C2CCCC2)n1
i,Cc1ccc(CNC(=O)c2cn(-c3cc(N4CCSCC4)ncn3)cn2)cc1

(further entries)
SMILES	GIRK2 act
CCc1ccc(NCc2cc3ccc(OC)cc3n(CC(N)=O)c2=O)cc1	i
CCOC(=O)CCC(=O)N1CCCC(COCc2ccccc2)C1 (centres undefined)	i
O=C(Nc1ccc(S(=O)(=O)N2CCN(c3cnccn3)CC2)cc1)c1cc(=O)c2ccccc2o1	i
CCCCCn1c(=S)[nH]c2cc(C(=O)Nc3cccc(Cl)c3)ccc2c1=O	i
O=C(C1CC=CCC1)N1CCC(Oc2ccccn2)CC1 (centres undefined)	i
O=C(Nc1ncn[nH]1)c1cccc(S(=O)(=O)N2CCOCC2)c1	i
Cn1c(SCC(=O)N2CCN(c3ccccc3F)CC2)nc2c(-c3ccccc3)csc2c1=O	i
O=C(Oc1ccc2c(=O)c(-c3ccccc3)coc2c1)c1ccc2c(c1)OCO2	i
O=C(CSc1nnc(N2CCN(C(=O)/C=C/c3ccccc3)CC2)s1)NCc1ccco1	i
O=C1/C(=C/c2cccs2)Oc2c1ccc1c2CN(CCN2CCOCC2)CO1	i
COc1ccc(Nc2oc(-c3ccc(S(=O)(=O)N4CCCC4)cc3)nc2C#N)cc1	i
Cn1c(=O)n(CCN2CCCCC2)c(=O)c2c1nc1n2CCN1c1cccc(Cl)c1	i
Cc1nnsc1C(=O)N1CCc2nc(NC(=O)C3CC3)sc2C1	i
O=C1/C(=C/c2ccccc2Br)Oc2cc(OC(=O)N3CCOCC3)ccc21	i
C=CCn1c(=O)c2c(nc3n(-c4cc(OC)ccc4OC)c(-c4ccccc4)cn23)n(C)c1=O	i
Cc1ccc2nc(C3CN(C(=O)c4ccccc4Br)C3)[nH]c2c1	i
O=C(NCC(O)c1ccoc1)C(=O)Nc1cc2c3c(c1)CC(=O)N3CCC2 (centres undefined)	i
COc1ccc(S(=O)(=O)Nc2nc3ccccc3nc2NCc2ccc(F)cc2)cc1	i
CCC1CCCCN1C(=O)c1cnc2nc(C)ccc2c1Nc1ccc(F)c(C#N)c1 (centres undefined)	i
COc1ccc(Cl)cc1NC(=O)CN1CCC(c2nc(-c3ccc(F)cc3)no2)CC1	i
O=C(Nc1cccs1)N1CCC(c2nnc(C3CC3)s2)CC1	i
O=C(NCCN1CCN(c2ccccc2F)CC1)C(=O)Nc1cccc(N2CCCCC2=O)c1	i
O=C(/C=C/c1ccc(CN(CCO)CCc2c[nH]c3ccccc23)cc1)NO	i
COc1ccccc1C(=O)Nc1cnc(-n2nc(C)c(C)c2C)nc1	i
Cc1cc(C)c(S(=O)(=O)N2CCN(C(=O)c3ccc4c(c3)OCO4)CC2)c(C)c1	i

Remaining list, next part:
SMILES	GIRK2 act
COc1ccc(/C=C2/SC(=S)N(c3cccc(F)c3)C2=O)cc1OC	i
Cn1c(=O)c(C(=O)Nc2cc(C(F)(F)F)ccc2Cl)cc2cccnc21	i
CCOc1ccc(N(C)S(=O)(=O)c2ccsc2C(=O)NC2CCC(C)CC2)cc1 (centres undefined)	i
Cc1ccc(-n2cc(C(=O)N3CCC(NC(=O)C4CCCC4)CC3)nn2)cc1	i
O=C(Nc1ccccc1)N1CCC(c2ccccc2)C1 (centres undefined)	i
COc1ccc(S(=O)(=O)NCC(O)c2ccoc2)c(C)c1 (centres undefined)	i
O=C(NCCc1ccccc1)NCc1cc(-c2cccs2)n(C2CCCC2)n1	i
CC(C)CS(=O)(=O)NCc1ccc(C(=O)c2cccs2)s1	i
O=C(CCCc1ccccc1)Nc1cnc(N2CCOCC2)nc1	i
COc1ccc(S(=O)(=O)N2CCCc3cc(NC(=O)c4ccccc4C)ccc32)cc1	i
CCc1ccccc1NC(=O)Cn1c(=O)c(C)nc2ccccc21	i
O=C(/C=C/c1ccc2c(c1)OCO2)NCC1(O)CCOc2ccccc21 (centres undefined)	i
Cc1noc(C)c1S(=O)(=O)NCc1cc(C2CC2)n(C)n1	i
Cc1ccc(C)c(Cn2c(=O)c3c(nc4n(CCCl)c(C)c(C)n34)n(C)c2=O)c1	i
COc1ccc(N2C(=O)C3N=NN(CC(=O)Nc4cccc(C(F)(F)F)c4)C3C2=O)cc1Cl (centres undefined)	i
COCCCN1CCc2nc(SCc3nc(-c4ccccc4)oc3C)[nH]c(=O)c2C1	i
COc1ccc(-c2csc(NC(=O)Nc3c(F)cccc3F)n2)cc1OC	i
O=C(CSc1nnc(N2CCN(C(=O)Cc3cccs3)CC2)s1)Nc1ccccc1	i
CC(=O)Nc1ccc(Cn2cnc(C(=O)Nc3cc(C)cc(C)c3)c2)cc1	i
COc1ccc(C(C)=O)cc1OC(=O)c1cc2cccc(OC)c2oc1=O	i
Cc1oc(-c2cc(Cl)ccc2Cl)cc1C(=O)NCCO	i
COc1ccccc1NC(=O)c1cc(S(=O)(=O)N2CCC(C)CC2)ccc1F	i
Cn1c(=O)c2cc(C(=O)NCc3ccccn3)n(Cc3ccccc3)c2n(C)c1=O	i
O=C(CN1CC(c2nc(C3CC3)no2)C1)N1CCOCC1	i
O=C(NCCC(O)c1ccc2c(c1)OCO2)C(=O)Nc1cccc(N2CCCCC2=O)c1 (centres undefined)	i

The listing continues:
SMILES	GIRK2 act
CCOc1ccc2nc(NC(=O)c3cc(=O)c(OCc4ccccc4)cn3C)sc2c1	i
COc1cc(NC(=O)c2cn(C)nc2C)cc(OC)c1OC	i
Cc1ccc(-c2nc(NC(=O)CCl)ns2)cc1	i
CCOc1ccccc1NC(=O)c1nnn(-c2ccc(Cl)cc2)c1C	i
Cc1ccc(S(=O)(=O)N(Cc2ccccc2F)C(=O)N2CCN(C)CC2)cc1	i
CCN(CC)C(=O)Cn1ncn2nc(-c3ccccc3)cc2c1=O	i
CCCN1C(=O)CCc2cc(NC(=O)Nc3ccc(Cl)cc3)ccc21	i
CC(C)(C)c1csc(CN2CCN(CC(=O)Nc3ccccc3F)CC2)n1	i
COc1cc(S(=O)(=O)NCCCN2CCOCC2)c(OC)cc1C	i
O=c1oc2c3c(ccc2cc1-c1ccc(Cl)cc1)OCN(Cc1ccncc1)C3	i
COc1ccccc1-c1csc(-c2nnn(-c3cc(F)ccc3F)c2N)n1	i
COc1ccc(S(=O)(=O)N2CCCOC2CNC(=O)C(=O)NCCN2CCOCC2)cc1C (centres undefined)	i
Cc1ccc(C)c(NC(=O)C2CC(=O)Nc3nc4ccccc4n32)c1 (centres undefined)	i
CCN1CCN(c2cc(C)nc3c(-c4ccc(Cl)cc4)c(C)nn23)CC1	i
N#Cc1c(SCC(=O)NCc2ccccc2)nc2c(c1C(F)(F)F)CCCC2	i
Cc1nn(-c2ccc(F)cc2)c2ncc(C(=O)NCC3CCCO3)c(Cl)c12 (centres undefined)	i
CCOC(=O)c1cn(-c2ccc(C)c(C)c2)nn1	i
O=C(O)CSc1nnc(-c2ccc(S(=O)(=O)N3CCCCCC3)cc2)o1	i
COC(=O)c1ccc(C(=O)N(CCc2cccs2)C2CC2)cc1	i
O=C(CC1=NS(=O)(=O)c2ccccc2N1)N1CCN(c2cccc(Cl)c2)CC1	i
CCc1nnc(C2CCN(C(=O)COc3ccccc3)CC2)s1	i
O=C(C1CC(=O)N(c2ccc(Cl)cc2)C1)N1CCCC(c2nnc(-c3ccccc3F)s2)C1 (centres undefined)	i
Cn1c(=O)[nH]c(=O)c2c1nc(N1CCC(Cc3ccccc3)CC1)n2CCO	i
O=C(c1csc(-c2cnccn2)n1)N1CCOCC1	i
CCOC(=O)c1c(NC(=O)c2cc3cccc(OC)c3oc2=O)sc2c1CCCC2	i

Following part:
SMILES	GIRK2 act
COc1ccccc1OCC(=O)Nc1ccccc1C(=O)O	i
COC(=O)c1ccc(Nc2ncnc3[nH]ncc23)cc1	i
Cc1noc(-c2ccc(NC(=O)c3ccc(Cl)cc3Cl)cc2)n1	i
C[C@]12CCC3c4cc(O)c(O)cc4CCC3C1CC[C@@H]2O (some centres undefined)	i
COc1ccc(C(=O)Nn2cnc3c(cnn3-c3ccc(C)c(C)c3)c2=O)c(OC)c1	i
Cn1c(NC(=O)c2ccco2)c(-c2ccc(Cl)cc2)c(=O)c2ccccc21	i
COc1ccc(S(=O)(=O)N2CCCCC2CCNC(=O)C(=O)Nc2ccccc2)cc1 (centres undefined)	i

Entries above with a thiophene ring, fused or not (15):
SMILES	GIRK2 act
CCSc1nnc(NC(=O)CN2CCN(Cc3nc(-c4cccs4)cs3)CC2)s1	i
O=C(NCc1ccsc1)NCc1cccs1	i
CCOc1ccccc1NC(=O)Cn1cnc2c(-c3ccc(C)cc3)csc2c1=O	i
CN(C)C(CNC(=O)c1cc(-c2ccc(F)cc2)nn1C)c1cccs1 (centres undefined)	i
COc1cccc(CNC(=O)CSc2nc3cc(-c4ccccc4)sc3c(=O)n2C)c1	i
O=c1[nH]c2nc(NCc3ccccc3C(F)(F)F)ncc2c(=O)n1CCc1cccs1	i
Cn1c(SCC(=O)N2CCN(c3ccccc3F)CC2)nc2c(-c3ccccc3)csc2c1=O	i
O=C1/C(=C/c2cccs2)Oc2c1ccc1c2CN(CCN2CCOCC2)CO1	i
O=C(Nc1cccs1)N1CCC(c2nnc(C3CC3)s2)CC1	i
CCOc1ccc(N(C)S(=O)(=O)c2ccsc2C(=O)NC2CCC(C)CC2)cc1 (centres undefined)	i
O=C(NCCc1ccccc1)NCc1cc(-c2cccs2)n(C2CCCC2)n1	i
CC(C)CS(=O)(=O)NCc1ccc(C(=O)c2cccs2)s1	i
O=C(CSc1nnc(N2CCN(C(=O)Cc3cccs3)CC2)s1)Nc1ccccc1	i
COC(=O)c1ccc(C(=O)N(CCc2cccs2)C2CC2)cc1	i
CCOC(=O)c1c(NC(=O)c2cc3cccc(OC)c3oc2=O)sc2c1CCCC2	i
